VACV mCherry inh: qHTS for Stage-Specific Inhibitors of Vaccinia Orthopoxvirus: mCherry Reporter Primary qHTS; Potency, µM (highest dose often 36.5 µM), inactives show at the top dose activity change, negative = inhibition, hits mostly inhibitors; 0.63% of 310,000 active; Vaccinia virus mCherry reporter infection, fluorescence; about a quarter of the inactives have no number; active = well fitted inhibition curve with a large enough effect; inconclusive = small, poorly fitted or top-dose-only effect; inactive = no such curve, though single readings can be large or run the other way; tested in A549 cells; further: nearly all actives have a fitted effect of over 35% in size; inactives centre near -10
VACV Venus inh: qHTS for Stage-Specific Inhibitors of Vaccinia Orthopoxvirus: Venus Reporter Primary qHTS | Vaccinia virus Venus reporter expression, fluorescence | Potency, µM (series often up to 36.5 µM), without a hit: at the top dose activity change, negative = inhibition, actives largely listed as inhibitors | 0.46% of 330,000 active | AID 720580, 2013; active means well fitted inhibition curve with a large enough effect; inconclusive means small, poorly fitted or top-dose-only effect; inactive means no such curve, though single readings can be large or run the other way; tested in A549 cells; further: nearly all actives have a fitted effect of over 30% in size; inactives centre near -10
The depositor's hits bear a star; i = inactive; ? = inconclusive; . = not tested or not shown; & = joins results of further samples; [ ] = remark or other dose. On the % scale 0 is the no-effect control and ±100 the full control effect; potency means the concentration at half of the fitted maximal effect.

molecule	VACV mCherry inh	VACV Venus inh
C=C(C)CC(c1ccccc1)N(C(C)=O)c1ccco1 (configuration not stated)	i	-2%
CC1=C(C(=O)OCc2ccccc2)C(c2cccs2)NC(=O)N1CCCC(=O)O (configuration not stated)	i	-11%
CCC(=O)N1c2ccccc2CC1C(=O)NCCCN1CCN(c2ccccc2)CC1 (configuration not stated)	-5%	5%
O=C(C[n+]1ccccc1)c1ccc(I)cc1	-18%	-11%
CC(C)C(=O)Nc1ccc(S(=O)(=O)N2CCC(c3nc4ccccc4[nH]3)CC2)cc1	-7%	-12%
Clc1ccc(/C=C/c2ccc3ccccc3n2)cc1Cl	-11%	-25%
CC(=O)NCCSC(=O)c1ccc(F)cc1	-5%	-4%
CC(NC(=O)CSc1nc(-c2cccc(Cl)c2)nc2cc(=O)[nH]n12)c1nc2ccccc2n1C (configuration not stated)	-1%	-1%
Cc1ccc(C)c(S(=O)(=O)N2CC(=O)N(CCc3ccccc3)C(=O)C2)c1	1%	12%
CCC(C)[C@H]1CNC(=S)N1CCC12CC3CC(CC(C3)C1)C2 (some centres not stated)	-1%	-19%
Cc1cc(NC(=O)CSCc2ccc([N+](=O)[O-])cc2)no1	-10%	-8%
Cc1ccccc1C1=NCC(=O)N(CC(=O)NCc2ccco2)c2sc3c(c21)CCCC3	-8%	-24%
Fc1ccc(Nc2ncnc3sccc23)cc1	-20%	-17%
COc1ccc(CNC(=O)C(C#N)c2nc3ccccc3nc2N2CCN(C)CC2)cc1 (configuration not stated)	i	-11%
Cc1cc(C)cc(Oc2ccc(C(F)(F)F)cc2C#N)c1	.	-5%
CN(C)c1ccc(C(CC(=O)O)C(=O)O)cc1 (configuration not stated)	-17%	-11%
CC(=O)c1ncnn1CC(=O)c1ccc(Cl)cc1Cl	-1%	-5%
FC(F)(F)c1ccc(CN2C[C@@H]3C(c4ccc(Cl)nc4)C4(c5cccnc5)CC3(C4)[C@H]2c2ccccc2)cc1 (some centres not stated)	?	?
CCC(=O)Nc1nc2ccccc2n1CCN1CCOCC1	-17%	-6%
COc1ccccc1OCC(=O)NCC1(N2CCOCC2)CCCCC1	-9%[7.34 µM]	-8%[7.34 µM]
Cc1nc(N2CCCCC2C)c2c(C)c(C(=O)Nc3ccccc3C(F)(F)F)sc2n1 (configuration not stated)	-12%	-4%
O=C(c1ccco1)N1CCN(Cc2csc(-c3ccccc3Cl)n2)CC1	-11%	-26%
O=C1NC2(Nc3ccccc31)C(=O)Nc1ccccc12 (configuration not stated)	.	-17%
COCCC(=O)N1CCC(Oc2ccc(C(=O)N3CCC[C@H]3CO)cc2)CC1	-12%	-1%
CCOc1cccc(CC(=O)N2CCc3c([nH]c4ccccc34)C2c2ccc(C)cc2)c1OCC (configuration not stated)	-23%	-26%
CN(C)CCN(Cc1cc2cc3c(cc2nc1Cl)OCO3)C(=O)c1ccco1	-7%	-2%
CC(C)Oc1ccc(CNC(=O)c2ccc3nc(Cc4ccccc4)oc3c2)cc1	-6%	5%
COC(=O)c1cc2oc(C)cc2n1Cc1ccc(C)cc1	i	-4%
O=C(COC(=O)c1ccc(O)cc1)NCC1CCCO1 (configuration not stated)	-3%	3%
CCN1CCN(S(=O)(=O)c2ccc(Cl)c(C(=O)Oc3ccc(CC(=O)OC)cc3)c2)CC1	-14%	-10%
O=C(Cc1ccccc1)NCC(=O)Nc1ccc(OC(F)(F)F)cc1	37%[activator]	1%
COc1ccccc1CNS(=O)(=O)CCNC(=O)c1ccccc1	-12%	-7%
CCn1nnc(-c2ccccc2NC(=O)c2cnccn2)n1	-9%[1.46 µM]	-19%
O=C1/C(=C/c2ccc(O)cc2)COc2ccccc21	-19%	-10%
O=C(Cn1sc2ccccc2c1=O)NC12CC3CC(CC(C3)C1)C2	i	19%
O=C(NCc1ccc(F)cc1)Nc1nnc([C@@H]2C[C@H](O)[C@@H](CO)O2)s1	2%	2%
O=C(c1cccc(-n2cnnn2)c1)N1CCOCC1	-18%	-1%
C[C@@H]1CN([C@@H](C)CO)S(=O)(=O)c2ccc(Br)cc2O[C@H]1CN(C)C(=O)C1CCOCC1	-16%	-5%
CCn1c(/C=N/NC(=O)c2ccc(OC)cc2)nc2ccccc21	?	?
CCCNC(=O)N1CCN(C(=O)NCCC)CC1	-10%	-7%
O=C(Cn1ncc2c3ccccc3n(Cc3ccccc3F)c2c1=O)NC1CCCCCC1	?	?
C=CCC[C@H](Cc1ccc(F)cc1)C(=O)OC[C@@H](C)NC(=O)[C@H](CC=C)CC(=O)N(CCO)Cc1ccccc1	i	?
COc1ccc(S(=O)(=O)N2CCN(c3ccccc3)CC2)cc1-c1noc(C)n1	-12%	-7%
O=C(N[C@H]1C/C=C\C[C@H](CC(=O)N(CCO)Cc2ccccc2)C(=O)NC[C@H](c2ccccc2)OC1=O)OCC1c2ccccc2-c2ccccc21	-15%	-7%
Cc1cc(C(=O)CCC(=O)Nc2ncccc2C)c(C)s1	-18%	-12%
CCOC(=O)[C@]12CCCC=C1N(Cc1ccc3c(c1)OCO3)C(=O)[C@H](CC(=O)NCc1cccs1)C2	-6%	-22%
CCOC(=O)C1CCN(C(=O)CCc2ccccc2)CC1	-1%	-9%
CCOc1ccc(S(=O)(=O)NCc2cccnc2)cc1C(C)C	-14%	-15%
Cc1cccc(N(C(=O)c2sc(C)nc2C)C(C(=O)NCc2ccco2)c2ccccc2)c1 (configuration not stated)	-9%	-8%
O=c1[nH]c(Cc2ccccn2)nc2scc(-c3ccc(Cl)cc3)c12	?	-7%
CC(=O)Nc1ccc(NC(=O)Cc2sc(-c3cccnc3)nc2-c2ccc(C)cc2)cc1	i	-22%
CCN(CC(=O)Nc1ccc(Br)cc1F)CC(=O)NC1CCS(=O)(=O)C1 (configuration not stated)	i	-14%
CC(C)C(=O)Nc1cccc(-c2nc3ccccc3o2)c1	-3%	-21%
Cn1c(=O)c2[nH]c(-c3ccccc3)c(O)c2n(C)c1=O	-23%	9%
CC(=O)c1cccc(NC(=O)CSc2ccc(-c3cccnc3)nn2)c1	i	-8%
Cc1cc(N2CCC(C(=O)NC3CC3)CC2)nc(-c2ccccc2)n1	i	-16%
Cc1ccc(-c2cc(C(=O)NCc3cn(C)nc3C)c3cc(Br)ccc3n2)cc1	i	-7%
Cc1ccc(C2=Nc3ccccc3NC(c3ccncc3)=N2)cc1	-14%	-20%
Fc1cnc(N2CCN(c3ccccc3)CC2)nc1N1CCN(c2ccccc2)CC1	i	-9%
CN(C(=O)C1Cc2c(-c3ccccc3Oc3ccccc3)ccnc2O1)c1ccccc1 (configuration not stated)	-21%	-23%

Further records follow.
molecule	VACV mCherry inh	VACV Venus inh
CC1CCN(C(=O)COC(=O)c2cccc(S(=O)(=O)N(C)c3ccccc3)c2)CC1	i	-10%
O=C(Nc1ccc(F)cc1F)c1noc2c1CCC2	-23%	-12%
COc1ccc(C(=O)NC(=S)N2CCC(C)CC2)cc1	-10%	-4%
COc1ccc(CN2COc3ccc4c(-c5ccccc5)cc(=O)oc4c3C2)cc1OC	-4%	-6%
CC(=O)Oc1ccc2c(c1)CCC1C2CC[C@]2(C)C(OC(C)=O)CCC12 (some centres not stated)	-3%	1%
CCOc1ccc(C(=O)Nc2nnc(C(C)C)s2)cc1OCC	-11%	-2%
COCCNC(=O)C1(C)CCCN(CCS(=O)(=O)c2ccc(C)cc2)C1 (configuration not stated)	?	-28%
CCCS(=O)(=O)N1CCC(C(=O)NCCc2ccc(OC)c(OC)c2)CC1	4%[1.46 µM]	-10%
CC1(C)OC(=O)C2=C(C[C@@H](CCc3ccccc3)O[C@H]2C2CCCC2)O1	i	4%
O=[N+]([O-])c1ccc(-c2csc(Nc3ccccc3)n2)cc1	-22%	-24%
COc1ccc(C2(C#N)CC[N+](C)(C)CC2)cc1	.	-4%
O=C1/C(=C/c2ccc(F)cc2)SC(=S)N1NS(=O)(=O)c1ccccc1	-15%	-15%
COc1ccccc1CCNC(=O)CNC(=O)Cc1cccc2ccccc12	26%&-5%	-8%&-9%
Cc1nc2nc(SCC(=O)NCCc3ccc(Cl)cc3)nn2c(C)c1Cc1ccccc1Cl	-18%	-10%
CN(C)c1ccc(/C=N/NC(=O)c2ccccc2Cl)cc1	-5%	-21%
COc1ccc(N(CC(=O)Nc2ccc3c(c2)OCCO3)S(C)(=O)=O)c(OC)c1	-10%	-2%
C#CCOCCOCCOCCNc1nc(N2CCN(C(=O)CCCCCCCCCCNC(=O)[C@H](CCCCN)n3cc(CCO)nn3)CC2)nc(N2CCN(C(=O)CCCCCCCCCCNC(=O)[C@H](CCCCN)n3cc(CCO)nn3)CC2)n1	i	?
CCCn1c(Sc2nc3c(c(=O)[nH]c(=O)n3C)n2CCC)nc2c1c(=O)[nH]c(=O)n2C	-1%	-12%
O=C1CC2(CCCCCC2)Oc2ccccc21	-10%	-2%
COc1ccc(OCC(=O)Nc2ccc3c(c2)nc(CCN2CCN(C)CC2)n3C)cc1	-17%	-7%
O=C(c1cc(S(=O)(=O)N2CCC3(CC2)OCCO3)ccc1F)N1CCCCC1	i	-4%
O=C(C[C@H]1C[C@H](C(=O)N2CCCCC2)[C@@]2(CCc3ccccc3)c3[nH]c4ccc(Cl)cc4c3CCN2C1=O)NCc1ccco1	-25%	-24%
Cc1ccc(C(=O)Nc2nnc(S(=O)(=O)N(C)Cc3ccc(Cl)cc3)s2)cc1	-13%	-6%
COc1cc2c(cc1CNC[C@H]1O[C@@H](n3cnc(C(N)=O)n3)[C@H](O)[C@@H]1O)OCO2	i	4%
CC(=O)Nc1c(O)nc(SC/C=C/CSc2nc(O)c(NC(C)=O)c(=O)[nH]2)[nH]c1=O	12%	5%
COc1ccccc1C(=O)Oc1cc(C)[nH]c(=O)c1[N+](=O)[O-]	i	-23%
O=S(=O)(c1ccc2ccccc2c1)N1C=CC(C(F)(F)F)=NCC1	-5%	-15%
c1ccc2c(c1)c1cccc3ccc4cccc2c4c31	-21%	-9%
O=C(CN1CCSC1=NCc1ccccc1)c1ccccc1	-24%	-5%
CC(/C=N/n1cnnc1)=C\c1ccccc1	-13%	-9%
CCOC(=O)Cc1c(C)nc2c(-c3ccc(Cl)cc3)cnn2c1C	-12%	-7%
Cc1cnc([N+](=O)[O-])n1CCOC(=O)NC(=O)c1c(F)cccc1F	i	2%
COc1ccccc1NC(=O)CSc1nnc2ccc(-c3ccccn3)nn12	-15%	-10%
CCCn1c(C2CCCN2c2nc(-c3cccc(Br)c3)cs2)nc2ccccc21 (configuration not stated)	-12%	-10%
COc1ccccc1-n1c(SCC(=O)N2CCOCC2)nc2cccnc21	-11%	-18%
C[C@@H](C(=O)Nc1ccc2ccccc2c1)[C@@H]1C[C@@]1(C)[C@@H](NC(=O)OCc1ccccc1)c1ccccc1	-16%	-23%
S=C1NCCOCCOCCNC(=S)N2CCOCCOCCN1CCOCCOCC2	-6%	1%
COC(=O)CNC(c1ccccc1)c1cc(Br)ccc1NC(=O)c1ccc(Cl)cc1 (configuration not stated)	6%	16%
Cc1cccc(Nc2nnc(SCC(=O)NCC3CCCO3)s2)c1C (configuration not stated)	i	-19%
O=C(Nc1ccc(OC(F)(F)F)cc1)C1CCN(S(=O)(=O)c2ccc3[nH]c(=O)ccc3c2)CC1	3%	6%

Record cards, from the list above:
Cc1cnc([N+](=O)[O-])n1CCOC(=O)NC(=O)c1c(F)cccc1F as listed: VACV mCherry inh: i; VACV Venus inh: 2%
O=C(C[C@H]1C[C@H](C(=O)N2CCCCC2)[C@@]2(CCc3ccccc3)c3[nH]c4ccc(Cl)cc4c3CCN2C1=O)NCc1ccco1 as listed: VACV mCherry inh: -25%; VACV Venus inh: -24%

More structures:
molecule	VACV mCherry inh	VACV Venus inh
CC12CCC3c4ccc(OP(=O)(N5CC5)N5CC5)cc4CCC3C1CCC2=O (configuration not stated)	-15%	-7%
O=C1CCCc2[nH]c(=O)c(C(=O)NCc3ccccc3)cc21	23%	-16%
Cc1ccc(S(=O)(=O)NCCSc2nnnn2-c2ccc(Cl)c(C(=O)O)c2)cc1	-1%	-11%
Cc1ccc(OCC(=O)Nc2ccccc2C(=O)OCc2cc(=O)n3ccsc3n2)cc1	-6%	-12%
Cc1cccnc1CNC(=O)C1(C)CCCN1CC(C)C (configuration not stated)	-14%	-9%
O=C1NC(=S)NC(=O)C1=Cc1cccc2cc3ccccc3cc12	?	11µM*
O=C(NCCN1CCOCC1)c1cc2ccccc2o1	-18%	-8%
O=C(N/N=C/c1cccc2nccnc12)c1ccccc1O	-12%	-9%
O=C(NCc1ccccc1)c1cccnc1N1CCOCC1	-14%[1.46 µM]	-16%
Cc1ccc(NC(=O)CNC(=O)Cn2cnc3sc(C)c(C)c3c2=O)cc1F	-2%[7.34 µM]	8%[7.34 µM]

Some values from the list:
In VACV mCherry inh, C[C@@H](C(=O)Nc1ccc2ccccc2c1)[C@@H]1C[C@@]1(C)[C@@H](NC(=O)OCc1ccccc1)c1ccccc1 has -16%
In VACV mCherry inh, COc1ccc(N(CC(=O)Nc2ccc3c(c2)OCCO3)S(C)(=O)=O)c(OC)c1 has -10%
In VACV mCherry inh, Cn1c(=O)c2[nH]c(-c3ccccc3)c(O)c2n(C)c1=O has -23%
In VACV Venus inh, O=C(c1cccc(-n2cnnn2)c1)N1CCOCC1 has -1%
In VACV mCherry inh, COc1ccccc1CCNC(=O)CNC(=O)Cc1cccc2ccccc12 has 26%&-5%
